# BJeLR lethal: BJeLR cell viability loss; 300,000 compounds, 0.17% hits; inhibition, % (concentration not given with the values); BJeLR (HRASV12) viability, CellTiter-Glo ATP luminescence, 48 h; reference of the scale not given here;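 active means replicate mean above 50%; inconclusive means above 50% but judged a plate artefact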;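 further: 50 nL library stock added to about 25 µL; numbers are from one replicate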
# Mtb hypoxia inh: Mtb hypoxia fluorescent reporter inhibition; M. tuberculosis hypoxia-regulated fluorescent reporter, fluorescence; fluorescence inhibition, % (test concentration not listed); 300,000 compounds, 0.1% hits;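 active means 35 to 45% if threefold the growth effect, above 45% if 1.5-fold the growth effect; inactive means the rest, general growth blockers included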;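 further: wells of about 50 µL received 100 nL stock; 0% = vehicle wells and 100% = reference inhibitor wells; whole bacteria with a GFP reporter of the hypoxia response; strong numbers were not always called active; many hits fall short of the cut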
# PrP 5UTR inh: suppresses PrP 5' UTR mRNA reporter expression. cell-based PrP 5' UTR mRNA reporter, plate reader. inhibition, % (concentration not given with the values). 340,000 compounds, 0.35% hits;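 active means every replicate at 50% or more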;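 further: 0 = median of the neutral control wells; tested in H4 reporter cells; numbers are from one replicate; inactives centre near -14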
# Sa ugtP lethal: growth inhibition of S. aureus ugtP deletion strain; 330,000 compounds, 0.54% hits; S. aureus RN4220 ugtP deletion, OD600 growth, 16 h; some inactives read as strong as hits; growth inhibition, % (test concentration not listed);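 active means z-score under -3 and OD600 up to 0.15 on both plates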;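 further: plate controls were untreated wells for no effect and antibiotic for full effect; wells of about 80 µL received 100 nL stock; the first replicate is given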
# Autofluor counter: flagged as autofluorescent in microsphere protease counterscreen. 360,000 compounds, 3.1% hits. compound autofluorescence counterscreen, microsphere flow cytometry; stronger effect = higher value. fluorescence intensity (no concentration beside the values);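 active means at least 3 SD above the mean of all compounds, about 16000 in these data; inconclusive means too few beads counted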;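 further: 100 nL of 1 mM stock went into each well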
# Sa RN4220 lethal: S. aureus RN4220 growth inhibition; AID 1259311; inhibition, % (no concentration beside the values); 330,000 compounds, 0.33% hits; OD600, 16 h;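 active means z-score of -3 or lower and OD600 up to 0.18 on both plates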;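 further: plate controls were untreated cells for no effect and reference antibiotic for full effect; stock transfer was 100 nL into about 80 µL; one replicate is shown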
# Mtb hypoxia inh growth: further read-out of Mtb hypoxia inh, marked with its call; growth inhibition, %; measured here: M. tuberculosis growth (absorbance);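 0% = vehicle and 100% = reference antibiotic; read after six days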
# The depositor's hits bear a star; ? = inconclusive; / = not tested or not shown. Random draw from the library (roughly 4% active in at least one column).
SMILES,BJeLR lethal,Mtb hypoxia inh,Mtb hypoxia inh growth,PrP 5UTR inh,Sa ugtP lethal,Autofluor counter,Sa RN4220 lethal
Cc1ccc(S(=O)(=O)NNC(=O)CCC(=O)Nc2ccccc2)cc1,-2.5,/,/,-7.0,-2.2,4949,-1.9
Cc1ccc(C=NCc2ccncc2)c(O)c1,5.5,4.9,1.9,-29.9,3.5,8064,3.6
CC(C)(C)Sc1ccc([N+](=O)[O-])cc1C(=O)Nc1ccncc1,-5.7,12.9,0.5,-14.1,4.9,4637,6.9
O=C(/C=C/c1ccccc1)Nc1ccc2c(c1)OCCO2,15.5,-0.5,-2.0,-38.3,0.6,2629,-0.2
CN(Cc1ccco1)C(=O)C1CCN(c2nnc(-n3cccc3)s2)CC1,4.3,7.5,5.2,-4.7,9.3,5252,3.9
Cn1c(N)c(C(=O)COC(=O)CCOc2ccc(C(C)(C)C)cc2)c(=O)n(C)c1=O,6.0,14.1,3.1,-24.9,4.6,5030,6.0
Cc1nc(C)c(-c2csc(Nc3ccc(N)cc3)n2)s1,-6.7,6.5,0.5,-43.7,-14.1,3505,4.8
O=C1c2ccccc2C(=O)c2[nH]c(=O)[nH]c21,8.8,/,/,-8.4,23.0,3724,43.8
CN(C(=O)Cn1cccc1C1=NC(c2ccccc2)CO1)c1ccccc1 (stereo not drawn),-0.7,-1.0,7.3,-32.9,-11.7,2066,0.1
O=C(O)C1C2C=CC(C2)C1C(=O)Nc1cccc(C(F)(F)F)c1 (stereo not drawn),0.5,4.9,-3.9,-14.1,2.1,3235,2.8
CCCN(CCC)C1CCc2ccc(O)cc2C1 (stereo not drawn),/,-6.0,0.8,-19.9,4.3,5261,3.4
Cc1ccc(NC(=O)c2ccc3c(c2)OCO3)cc1S(=O)(=O)N1CCOCC1,/,-6.0,-0.3,/,1.9,?,3.2
Cc1c(NC(=O)c2cnn3c2NC(c2ccccc2)CC3C(F)(F)F)c(=O)n(-c2ccccc2)n1C (stereo not drawn),6.9,-4.4,-7.8,6.0,1.6,8056,1.7
O=C(NC(=S)NCC1CCCO1)c1cccs1 (stereo not drawn),-6.0,10.9,4.9,-25.3,-17.8,2405,5.1
CC(=O)N1CCN(c2ccc(NC(=O)c3ccc(C(C)(C)C)cc3)cc2)CC1,4.8,6.3,8.4,-40.6,1.7,7974,5.9
CC1(OC(=O)C2CCCC2)C(=O)C=C2C=C(c3ccsc3)N(CCc3ccccn3)C=C2C1=O (stereo not drawn),4.9,11.0,9.6,-29.9,1.4,3513,4.3
Cc1nnsc1NC(=O)OCc1ccc(C(F)(F)F)cc1,3.5,16.7,16.5,-16.9,2.1,2921,8.8
CC(C)Cc1nnc(NC(=O)CCC(=O)Nc2ccc(Cl)cc2)s1,-4.6,-2.4,-5.1,-19.7,7.1,4556,4.0
CC(C)(CNCc1ccccc1)NS(=O)(=O)c1ccccc1,/,7.0,11.2,-30.6,7.0,7333,3.1
O=C(NC1CC1)C1CC(=O)N(C2CCCCC2)C1 (stereo not drawn),5.0,6.8,-3.0,-25.4,13.7,7380,5.2
C=CCn1c(=O)c2c(nc3n2CC(C)CN3CCc2ccccc2)n(C)c1=O (stereo not drawn),-2.2,0.4,6.2,-19.6,-2.3,5616,0.1
CCc1ccc(NC(=O)CSc2n[nH]c(=O)n2C2CC2)cc1,/,-0.1,4.4,-19.0,6.0,6399,2.1
Cc1ccc(S(=O)(=O)NC(C)C(c2cccs2)N2CCN(c3ccccc3)CC2)cc1 (stereo not drawn),-16.4,0.2,11.8,-15.8,-7.9,6580,-2.1
O=C(CCCCCN1C(=O)c2ccccc2C1=O)NCc1ccccn1,12.5,17.8,3.8,-17.9,-3.6,3245,-10.5
Cc1nn(-c2ccccc2)nc1C(=O)Nc1ccc2c(c1)OCCO2,3.9,2.2,4.4,-1.2,-3.7,?,1.6

# Compounds listed so far with fluorine (three):
SMILES,BJeLR lethal,Mtb hypoxia inh,Mtb hypoxia inh growth,PrP 5UTR inh,Sa ugtP lethal,Autofluor counter,Sa RN4220 lethal
O=C(O)C1C2C=CC(C2)C1C(=O)Nc1cccc(C(F)(F)F)c1 (stereo not drawn),0.5,4.9,-3.9,-14.1,2.1,3235,2.8
Cc1c(NC(=O)c2cnn3c2NC(c2ccccc2)CC3C(F)(F)F)c(=O)n(-c2ccccc2)n1C (stereo not drawn),6.9,-4.4,-7.8,6.0,1.6,8056,1.7
Cc1nnsc1NC(=O)OCc1ccc(C(F)(F)F)cc1,3.5,16.7,16.5,-16.9,2.1,2921,8.8

# Grouped by structure: the entries above containing an aryl thioether with sulfur outside any ring
SMILES,BJeLR lethal,Mtb hypoxia inh,Mtb hypoxia inh growth,PrP 5UTR inh,Sa ugtP lethal,Autofluor counter,Sa RN4220 lethal
CC(C)(C)Sc1ccc([N+](=O)[O-])cc1C(=O)Nc1ccncc1,-5.7,12.9,0.5,-14.1,4.9,4637,6.9
CCc1ccc(NC(=O)CSc2n[nH]c(=O)n2C2CC2)cc1,/,-0.1,4.4,-19.0,6.0,6399,2.1

# (listing goes on)
SMILES,BJeLR lethal,Mtb hypoxia inh,Mtb hypoxia inh growth,PrP 5UTR inh,Sa ugtP lethal,Autofluor counter,Sa RN4220 lethal
Cc1cccc(NC(=O)CC2C(=O)NCCN2C(=S)Nc2ccccc2)c1 (stereo not drawn),2.1,5.7,-3.4,-19.5,12.4,7120,0.6
CC(=NNC(=O)CSCc1ccccc1Cl)c1cccc(NC(=O)c2ccccc2)c1,/,1.6,4.4,/,-6.3,/,-7.1
CC1=Nc2cc(C(=O)NCCCOC(C)C)ccc2Sc2ccc(C)cc21,43.0,15.0,8.3,18.2,2.8,3772,0.6
Cc1csc(/C(=N\O)c2csc(C)n2)n1,-4.6,/,/,-5.6,/,8842,/
CC(C)Cc1nnc(NC(=O)CCC(=O)NC2CCCCC2)s1,-11.6,5.5,3.4,-9.4,-4.2,6598,6.2
O=c1ccc(-c2ccc(S(=O)(=O)Nc3cccc(Br)c3)o2)n[nH]1,1.8,-1.3,2.9,-27.7,0.3,5394,-1.9
Cc1ccc(C)c(C(=O)COc2ncnc3ccccc23)c1,7.7,4.5,9.9,-21.2,1.1,4269,6.5
COc1ccc2c(C)nc(Nc3nc(C)c(C)c(=O)[nH]3)nc2c1,6.3,13.2,14.0,-77.3,19.6,?,42.7
COc1ccccc1N1CCN(C(=O)C2C3C=CC4(CN(Cc5ccccc5Cl)C(=O)C24)O3)CC1 (stereo not drawn),-6.8,8.4,6.4,-33.5,4.3,20591*,2.4
[O-]/[N+](=C\C=C\c1ccccc1)c1ccccc1,-10.4,7.8,-4.3,-64.7,7.7,5678,1.3
COc1ccc(N2CC(C(=O)Nc3c4c(nn3-c3ccccc3)CS(=O)(=O)C4)CC2=O)cc1 (stereo not drawn),-3.4,9.0,0.4,-4.3,1.6,?,-1.3
CC(=O)c1ccc(NS(=O)(=O)c2cccc(C)c2)cc1,-0.8,-0.5,11.3,-15.8,-1.3,10986,5.0
CC1CCN(c2ccc(-c3cccc(NC(=O)c4ccco4)c3)nn2)CC1,-9.0,-4.1,-0.5,-33.7,0.5,/,1.5
COc1ccc(/C(O)=C2/C(=O)C(=O)N(CCCN3CCOCC3)C2c2ccc(OC)cc2)cc1 (stereo not drawn),1.4,-3.8,11.4,-30.1,0.8,3386,3.3
CN(c1ccccc1C(=O)Nc1cccc(C(F)(F)F)c1)S(C)(=O)=O,2.2,/,/,-10.5,9.7,2265,2.3
CN(CC(=O)OCC(=O)c1c(N)n(C)c(=O)n(C)c1=O)S(=O)(=O)c1ccc(Cl)cc1,5.6,10.2,0.4,-14.4,4.8,2555,5.7
CCC(c1nnnn1C1CCCC1)N1CCN(Cc2ccccc2)CC1 (stereo not drawn),0.8,/,/,-0.3,5.5,3220,-2.0
CCOc1ccccc1NC(=O)NC1(C(=O)N2CCN3CCCC3C2)CCCCC1 (stereo not drawn),-9.9,/,/,-11.3,1.9,3747,-2.3
Cc1ccc(S(=O)(=O)N2CCC(C(=O)NCc3ccccc3CN3CCCC3)CC2)cc1C,/,0.9,-1.3,-17.9,0.0,4312,-0.6
COc1ccc(Cn2nnc3ccccc32)cc1,-13.4,/,/,-12.1,/,3670,/
O=C(O)c1cc(NS(=O)(=O)c2cccs2)cc(NS(=O)(=O)c2cccs2)c1,/,-2.9,6.7,-13.4,1.6,3438,1.4
Cc1nc2sccn2c(=O)c1S(=O)(=O)NCc1ccccc1,-0.7,4.4,11.8,-19.4,-3.1,5694,-2.3
Cc1nn(C)c(C)c1NC(=O)COc1ccc(F)cc1Br,/,8.2,8.4,-3.3,2.4,4212,5.2
NC(=O)C1CCN(C2OC(=O)c3ccccc32)CC1 (stereo not drawn),-5.0,9.9,5.7,-6.9,-5.0,3270,21.9
CCC1CCCCN1CCNC(=O)C1CCCN(S(=O)(=O)c2cccc3nsnc23)C1 (stereo not drawn),8.3,-5.9,4.8,-5.2,0.2,6241,-0.4

# Carrying on.
SMILES,BJeLR lethal,Mtb hypoxia inh,Mtb hypoxia inh growth,PrP 5UTR inh,Sa ugtP lethal,Autofluor counter,Sa RN4220 lethal
Cc1ccc(NC(=O)CCCn2c(=O)[nH]c3ccsc3c2=O)cc1,-0.2,8.5,-1.8,-21.9,6.8,3759,2.2
CCc1ccc(N(C(=O)c2csnn2)C(C(=O)NC(C)(C)C)c2ccncc2)cc1 (stereo not drawn),-2.3,-1.8,-2.5,-30.3,1.8,8076,5.9
COCc1nnc(NC(=O)c2sc3ccccc3c2Cl)s1,2.1,-3.3,11.8,-40.5,-9.7,5760,11.7
Cc1ccc(N=C2NC(=O)/C(=C/c3cccs3)S2)cc1C,9.7,1.9,6.5,-34.3,-10.8,10283,-20.0
COc1ccc(C(=O)COC(=O)CN2C(=O)C3CC=CCC3C2=O)c(OC)c1 (stereo not drawn),/,-1.3,1.1,-22.4,5.3,3422,4.4
CC(C)c1cc(C(=O)N2CCCC(Nc3ccc(F)c(F)c3)C2)nc(N)n1 (stereo not drawn),-5.1,4.8,-7.5,-15.7,3.0,6352,4.2
CCOC(=O)CN(C(=O)CNC(=O)c1ccco1)C(C(=O)NC1CCCCC1)c1cccnc1 (stereo not drawn),-7.5,6.8,6.6,-8.2,5.3,5343,3.2
CC(CNC(=O)CN1C(=O)NC2(CCOc3ccccc32)C1=O)c1ccccc1 (stereo not drawn),/,15.0,9.5,/,1.4,5418,-0.3
S=c1nc[nH]c2c1cnn2-c1ccccc1,-1.7,3.3,-1.0,-12.2,-5.2,3747,6.5
Cc1ccc(S(=O)(=O)N2CCN(C(=O)NCc3ccc(F)cc3)CC2)c(C)c1,13.5,0.9,-3.0,-28.6,14.0,3868,-6.0
CN(C(=O)CSc1nnc(Cc2ccccc2F)n1N)C1CCS(=O)(=O)C1 (stereo not drawn),5.0,2.5,6.7,-13.0,-6.3,2932,2.1
CCOc1ccc(C2C=C(c3ccc(F)cc3)Nc3ncnn32)cc1 (stereo not drawn),-5.5,19.0,10.5,-52.5,1.1,4643,1.9
CS(=O)(=O)N(CC(=O)NCC1CCCO1)c1cc(Cl)ccc1Cl (stereo not drawn),-1.9,-0.2,5.8,-28.8,-2.2,2126,-1.8
Cc1ccccc1C(=O)N1CCC(C(=O)Nc2ccc(C(C)C)cc2)CC1,4.7,5.8,14.8,-7.1,3.2,5731,-2.5
O=C(O)CCC(=NNC(=O)CNC(=O)c1ccc2c(c1)OCCO2)c1ccccc1,/,1.1,-2.3,/,2.6,/,2.2
CC(=O)c1ccc(N2CCN(C(=O)[C@H](C)NC(=O)c3ccccc3Cl)CC2)cc1,2.9,0.7,9.1,-19.7,6.0,3800,2.8
Cc1oc(-c2ccccc2F)nc1CN1CCC(C(=O)NC2CCCCCCC2)CC1,-2.6,-7.9,-6.5,-8.7,-3.4,16243*,-0.7
O=C(COC(=O)c1cccnc1Cl)c1ccc(Cl)cc1Cl,1.8,0.0,5.5,-25.1,1.2,19499*,3.7
C/C(C=NNC(=O)Cn1cnc2c1c(=O)n(C)c(=O)n2C)=C\c1ccco1,/,-4.1,5.0,/,4.3,/,2.2
O=C(O)/C=C/c1cn(-c2ccccc2)nc1-c1ccc(-c2ccc([N+](=O)[O-])cc2)o1,10.5,14.7,-3.6,-24.0,38.9,3621,-0.6
CCCCn1nc(C(=O)Nc2c(C)n(C)n(-c3ccccc3)c2=O)c2ccccc2c1=O,/,-1.6,0.2,-26.8,1.9,6641,0.2
Cc1ccc(S(=O)(=O)Cc2cc(F)c([N+](=O)[O-])cc2[N+](=O)[O-])cc1,-1.1,/,/,-17.7,/,4802,/
CCN(CC)c1ccc(CNc2nc3ccccc3n2CCN2CCCCC2)cc1,4.3,6.3,10.1,-19.7,-2.9,4980,-0.9
